Mtb H37Rv: M. tuberculosis H37Rv growth inhibitors, H37Rv strain (AID 1626) | M. tuberculosis H37Rv growth inhibition; higher % means a stronger effect | one-dose inhibition, % at 10 µM; IC50 in µM for titrated hits | 0.95% of 220,000 active;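 active = confirmed in a dose series; inconclusive = inhibition above 80% but not taken into the dose series; inactive = below 80% or under 30% at every dose of the series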;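 also: bacteria incubated seven days before Alamar blue readout; 0% = bacteria only wells and 100% = bacteria with antibiotic wells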
Arbovirus anti: antivirals against arbovirus infection, primary screen, cell-based, full library, 10K replicate subset | arbovirus infection cell-based antiviral screen | inhibition, % at 10 µM | 0.37% of 200,000 active | AID 1251, 2008;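 active = inhibition from about 30%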;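 also: bluetongue infection of BSR cells; cell survival read as ATP light after 72 h; 0% = infected wells without compound and 100% = uninfected wells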
RecA splice inh: Mtb RecA intein splicing inhibitors, primary screen, biochemical, fluorescence, HTS. cell-free RecA intein splicing. inhibition, %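 (about 9 µM by stock and volumes)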. 0.75% of 290,000 active. AID 2221, 2009; in the data active = inhibition above about 30%; inconclusive = no clear call, values can overlap the other calls;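 also: 0% = vehicle wells and 100% = reference inhibitor control wells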
Target sequence (P9WHJ3 whole entry, looked up, canonical isoform): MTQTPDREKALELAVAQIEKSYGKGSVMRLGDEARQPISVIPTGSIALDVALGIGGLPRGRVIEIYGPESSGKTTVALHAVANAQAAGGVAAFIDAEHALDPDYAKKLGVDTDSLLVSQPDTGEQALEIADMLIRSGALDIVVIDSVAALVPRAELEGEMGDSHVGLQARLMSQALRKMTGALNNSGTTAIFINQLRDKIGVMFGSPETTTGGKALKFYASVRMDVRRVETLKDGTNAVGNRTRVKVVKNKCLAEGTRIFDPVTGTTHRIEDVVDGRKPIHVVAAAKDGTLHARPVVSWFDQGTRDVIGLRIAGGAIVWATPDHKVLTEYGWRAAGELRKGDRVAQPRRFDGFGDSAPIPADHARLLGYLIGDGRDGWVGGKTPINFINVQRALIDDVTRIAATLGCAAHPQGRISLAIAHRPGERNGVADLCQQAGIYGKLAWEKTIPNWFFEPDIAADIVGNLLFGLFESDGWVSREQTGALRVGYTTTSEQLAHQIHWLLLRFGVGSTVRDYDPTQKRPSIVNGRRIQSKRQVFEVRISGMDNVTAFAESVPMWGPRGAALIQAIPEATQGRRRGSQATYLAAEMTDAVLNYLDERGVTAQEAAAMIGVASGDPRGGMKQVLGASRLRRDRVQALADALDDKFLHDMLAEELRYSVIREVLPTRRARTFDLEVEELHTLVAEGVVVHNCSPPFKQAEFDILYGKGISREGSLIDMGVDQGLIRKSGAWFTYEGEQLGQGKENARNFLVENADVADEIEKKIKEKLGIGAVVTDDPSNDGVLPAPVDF
YopH PTP inh: YopH tyrosine phosphatase inhibitors, primary screen, biochemical, fluorescence Ex485/Em525; YopH tyrosine phosphatase [Yersinia enterocolitica]; inhibition, %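 (about 10 µM by stock and volumes)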; 0.16% of 140,000 active; AID 898, 2007;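 active = inhibition of 50% or more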;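 also: controls were vehicle for no effect and minimum signal wells for full effect; inactives centre near -20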
Mtb betalactam: beta-lactam sensitization of Mtb H37Rv, H37Rv | AID 434955, 2010 | M. tuberculosis H37Rv growth with meropenem, percent inhibition; hits of this screen are not shown here | 0.27% of 330,000 active | inhibition, % at 25 µM;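 active = about 74% or more and at least 40 points above the plate without the antibiotic, then above 30% in a dose series; inconclusive = first-round hits that could not be retested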;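 also: growth measured after seven days incubation then overnight dye step; 0% = bacteria only wells and 100% = bacteria with antibiotic; twin plates without the antibiotic show which effects depend on it; some results filed as inactive read as strong as hits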
Arbovirus anti repeat: second read-out of Arbovirus anti, no call of its own (marks repeat the call); inhibition, %; measured here: 10K subset replicate screen; many hits read low in the repeat;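 first of two repeat runs on a subset; 0% = infected and 100% = uninfected wells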
The depositor's hits bear a star. The list is partial; the hit share may differ from the screen's.

`CCC(Sc1nc(N)c(NC(=O)c2ccc(OC)c(OC)c2)c(=O)[nH]1)C(=O)OC` (stereo not given) gave Mtb H37Rv 2%, Arbovirus anti 10, RecA splice inh -4.3, YopH PTP inh -14 and Mtb betalactam 9.
O=C1CN(C(=O)/C=C/c2ccc(Cl)cc2)c2ccccc2N1 was read as Mtb H37Rv 9%, Arbovirus anti 31*, RecA splice inh 2.8 and Mtb betalactam 37.
`Cc1ccc(-n2nc(-c3ccco3)cc2C(=O)O)c(C)c1` gave Mtb H37Rv -6%, Arbovirus anti 10 and RecA splice inh 9.5.
CCC(C(=O)Nc1ccc([N+](=O)[O-])cn1)c1ccccc1 (stereo not given) was read as RecA splice inh 2.5 and Mtb betalactam 0.
Screening Cc1ccc(C(=O)N2N=C(c3ccc(Br)cc3)CC2c2ccccc2O)cc1 (stereo not given) returned RecA splice inh -1.9 and Mtb betalactam 57.
`COC(=O)c1ccc(C23CC4(C2)[C@H](CN(C)[C@@H]4c2ccccc2)C3c2ccc(Cl)nc2)cc1` (stereo not given in full) gave Mtb H37Rv 9%, RecA splice inh 5.4 and Mtb betalactam 56.
`CCC1CCCCN1C(=O)c1ccc2nc(Cc3ccc(OC)cc3)oc2c1` (stereo not given) gave RecA splice inh 0.6 and Mtb betalactam 1.
Screening COc1ccc(CN(C)CCc2ccccn2)cc1OC returned Mtb H37Rv -6%, Arbovirus anti 1, RecA splice inh -2.2, YopH PTP inh 10 and Mtb betalactam -6.
Cc1ccc(NC(=O)C(CC(C)C)NC(N)=O)cc1 (stereo not given) was read as Mtb H37Rv -3%, Arbovirus anti 1, RecA splice inh 33*, YopH PTP inh -25 and Mtb betalactam 8.
`N=C1c2ccccc2CN1c1ccc(S(=O)(=O)N2CCCCC2)cc1` gave Mtb H37Rv -4%, Arbovirus anti 2, RecA splice inh -0.7 and Mtb betalactam -2.
Screening CN(C)c1nc(Oc2ccc(OCCOc3ccccc3)nn2)nc(N(C)C)n1 returned Mtb H37Rv 2%, Arbovirus anti -6, RecA splice inh -1.9 and Mtb betalactam -4.
COc1ccc(CCNC(=O)c2ccc(SC)cc2OC)cc1 was read as Mtb H37Rv 4%, Arbovirus anti -19 and Mtb betalactam -1.
CN(C)c1ccc(NC(=O)c2cccc(N3C(=O)CCC3=O)c2)cc1 was read as Mtb H37Rv -10%, Arbovirus anti 4, RecA splice inh -1.7, YopH PTP inh -5, Mtb betalactam 5 and Arbovirus anti repeat 2.
Screening O=c1[nH]c(/C=C\c2ccc(O)c(O)c2)nc(O)c1[N+](=O)[O-] returned RecA splice inh -3.4 and Mtb betalactam 1.
For CC(C)(C)c1ccc2c(c1)N(CC(=O)O)C(=O)CO2 the results were Mtb H37Rv -7%, Arbovirus anti 0, RecA splice inh -1.5, YopH PTP inh -45 and Mtb betalactam -4.
For CCN(CC(=O)Nc1ccc(OC)c(Cl)c1)CC(=O)NC(C)C the results were Mtb H37Rv -5%, Arbovirus anti 12, RecA splice inh 0.0 and Mtb betalactam 6.
For CN1CC(c2ccccc2Cl)C2(COc3ccccc3C2=O)C12C(=O)Nc1ccccc12 (stereo not given) the results were Mtb H37Rv 3%, Arbovirus anti -18, RecA splice inh 22, YopH PTP inh -17 and Mtb betalactam 11.
`CC(=O)c1cccc(CN2CCN(Cc3ccc(C)cc3)C(CCO)C2)c1` (stereo not given) gave Mtb H37Rv 7%, Arbovirus anti -4, RecA splice inh 0.4 and Mtb betalactam 10.
For O=C(NCc1ccc(OC(F)(F)F)cc1)C1CC(c2ccccc2[N+](=O)[O-])=NO1 (stereo not given) the results were Mtb H37Rv 9%, Arbovirus anti -5, RecA splice inh -0.1, YopH PTP inh -15 and Mtb betalactam -2.
Screening COc1ccc(/C=C/C(=O)OCC(=O)Nc2cc3oc4ccccc4c3cc2OC)cc1 returned Mtb H37Rv 3%, Arbovirus anti -12, RecA splice inh 1.7 and Mtb betalactam 1.
`Cc1ccc(NC(=O)COc2ncnc3sccc23)cc1S(=O)(=O)N(C)C` gave Mtb H37Rv -2%, Arbovirus anti 5, RecA splice inh 5.9 and Mtb betalactam -9.
For Cc1ccc2c(c1)N(CCC(=O)NC1CC1)C(=O)C(C)O2 (stereo not given) the results were Mtb H37Rv 3%, Arbovirus anti 1, RecA splice inh -0.4, YopH PTP inh -31 and Mtb betalactam 4.
Screening COc1ccc(CN2CCNC(=O)C2CC(=O)N(C)CC2CCOCC2)cc1OC (stereo not given) returned RecA splice inh -5.0 and Mtb betalactam -2.
Screening COc1ccc(-c2nn(C)c(=O)[nH]2)cc1 returned Mtb H37Rv -7%, RecA splice inh 8.8 and Mtb betalactam -11.
Screening CCNC(=S)N(CCc1ccc(OC)c(OC)c1)Cc1cc2cc(OC)ccc2[nH]c1=O returned Mtb H37Rv -7%, Arbovirus anti 10, RecA splice inh 1.4 and Mtb betalactam -5.
For CC(C)Nc1nc(NC(C)(C)C)nc(Oc2ccc(=O)n(-c3ccccc3)n2)n1 the results were Mtb H37Rv 3%, Arbovirus anti -4, RecA splice inh 1.3, YopH PTP inh -67 and Mtb betalactam -1.
Screening COc1nc(-c2ccc(Cl)cc2Cl)nc2ccccc12 returned RecA splice inh 4.3 and Mtb betalactam 4.
For O=c1oc2ccccc2c(Nc2cc3ccccc3cc2O)c1[N+](=O)[O-] the results were Mtb H37Rv 2%, Arbovirus anti -7, RecA splice inh 0.2 and Mtb betalactam 0.
For O=C1C=C(O)CC(c2ccc(Cl)cc2)C1 (stereo not given) the results were Arbovirus anti 16, RecA splice inh -0.9, YopH PTP inh 3, Mtb betalactam 6 and Arbovirus anti repeat 8.
`Cc1ccccc1NC(=O)Cn1nnc2c(cnn2-c2ccc(F)cc2)c1=O` gave Mtb H37Rv -7%, Arbovirus anti -14, RecA splice inh 5.5, YopH PTP inh -13 and Mtb betalactam 4.
CCc1nc(N)c(C#N)c(-c2cccnc2)c1C was read as Mtb H37Rv -6%, Arbovirus anti 2, RecA splice inh -1.3, YopH PTP inh -34 and Mtb betalactam 7.
CCC1Oc2ccc(C)cc2N(CC(=O)N2CCN(c3ccc(F)cc3)CC2)C1=O (stereo not given) was read as Mtb H37Rv 4%, Arbovirus anti 12, RecA splice inh -3.3, YopH PTP inh -44, Mtb betalactam -3 and Arbovirus anti repeat -5.
For CC1CCCCC1NC(=O)CSc1nnc(CC(=O)Nc2ccccc2F)n1C (stereo not given) the results were RecA splice inh 0.1 and Mtb betalactam -2.
`CN(C)c1nc(Nc2ccc(F)cc2)nc(Oc2ccc(F)cc2)n1` gave RecA splice inh -1.4 and Mtb betalactam -4.
`CC(NC(=O)c1ccccc1F)C1CC1` (stereo not given) gave RecA splice inh -0.7 and Mtb betalactam -2.
`Cc1cc2oc(=O)cc(CN(C)Cc3ccccc3)c2cc1C(C)C` gave RecA splice inh 15 and Mtb betalactam 11.
`Cc1cc(C(=O)CSc2nnc(-c3ccc(Cl)cc3)n2CC2CCCO2)c(C)n1C` (stereo not given) gave Arbovirus anti 8, RecA splice inh 4.0, YopH PTP inh -47 and Mtb betalactam -5.
Screening CC(Sc1nnc(CN2CCCC2)n1Cc1ccccc1)C(=O)Nc1ccc(F)cc1 (stereo not given) returned RecA splice inh 0.3 and Mtb betalactam -5.
`COc1ccc(C(CNC(=O)c2cccc(Br)c2)N2CCCC2)cc1` (stereo not given) gave Mtb H37Rv -4%, Arbovirus anti -2, RecA splice inh 0.1, YopH PTP inh 0 and Mtb betalactam -5.
`CCCCn1c(N)c(N(CC(C)C)C(=O)CCCc2nc3ccccc3c(=O)[nH]2)c(=O)[nH]c1=O` gave RecA splice inh -0.7 and Mtb betalactam -3.
`CC(=O)N/C(=C/c1ccc2c(c1)OCO2)C(=O)NCCCO` gave Mtb H37Rv -3%, Arbovirus anti 3, RecA splice inh -1.4, YopH PTP inh -28 and Mtb betalactam -1.
Cc1ccc(NC(=O)[C@H](C)NC(=O)C2CCN(C(=O)[C@@H](NC(=O)OC(C)(C)C)C(C)C)CC2)cc1 was read as RecA splice inh -2.8 and Mtb betalactam inconclusive.
Screening COc1ccc(NC(=O)[C@@H]2CC=C[C@@H]3CCN(Cc4ccc(Cl)c(Cl)c4)C(=O)[C@@H]32)cc1 returned Mtb H37Rv 9%, RecA splice inh 10 and Mtb betalactam 69.
`Cc1ccc(C(C)C)c(OCC(=O)NN=C2CCCCCCC2)c1` gave Mtb H37Rv -3%, Arbovirus anti -9, RecA splice inh -0.2, YopH PTP inh 11 and Mtb betalactam 2.
`COC(=O)C1=C(C)NC2=C(C(=O)c3ccccc32)C1c1cccc(OC)c1` (stereo not given) gave Mtb H37Rv 8%, RecA splice inh 1.3 and Mtb betalactam -1.
Screening Cc1ccc2nc(C)c(C(=O)N/N=C/c3ccco3)cc2c1 returned Mtb H37Rv 0%, Arbovirus anti 1, RecA splice inh -0.6, YopH PTP inh 1 and Mtb betalactam -4.
CC(=O)Nc1c(F)c(F)c(F)c(F)c1F was read as RecA splice inh -2.5 and Mtb betalactam -8.
Screening COc1ccc(NC(C)=O)cc1NC(=O)C1CCN(C(=O)Nc2ccccc2)CC1 returned RecA splice inh -0.6 and Mtb betalactam -1.
O=C(NCc1ccccn1)c1c(Cl)cccc1Cl was read as Mtb H37Rv 1%, Arbovirus anti -4, RecA splice inh -0.7, YopH PTP inh -43 and Mtb betalactam 8.
Screening CCOc1ncnc2c1oc1nc(CC(C)C)c3c(c12)CC(C)(C)OC3 returned Mtb H37Rv inconclusive, Arbovirus anti 14, RecA splice inh -0.9, YopH PTP inh -5 and Mtb betalactam 100.
COc1ccc(NC2CCCN(C(=O)CCc3ccccc3F)C2)cc1 (stereo not given) was read as RecA splice inh 1.0 and Mtb betalactam 4.
O=C(O)CCNS(=O)(=O)c1cccc(Br)c1 was read as Mtb H37Rv 0%, RecA splice inh -0.4 and Mtb betalactam -7.
`Nc1nonc1-n1nnc(C(=O)N/N=C/c2ccc(Cl)cc2Cl)c1CN1CCOCC1` gave RecA splice inh -1.3 and Mtb betalactam -1.
Screening O=C(Nc1c2c(nn1-c1ccccc1)CS(=O)(=O)C2)C1CCCC1 returned RecA splice inh 0.1 and Mtb betalactam 0.
For O=C1c2ccccc2-c2cccc(C(=O)N3CCCCCC3)c21 the results were Mtb H37Rv 6%, Arbovirus anti 8, RecA splice inh 6.7, YopH PTP inh -43 and Mtb betalactam 2.
`CSc1ccc(CN2CCCC(CO)(Cc3ccccc3)C2)cc1` (stereo not given) gave Mtb H37Rv -4%, Arbovirus anti -8, RecA splice inh 1.4 and Mtb betalactam 1.
